MgrA-DNA mod: S. aureus MgrA-DNA binding modulation; inhibition, %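 (about 10 µg/mL by stock and volumes)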; AID 602314; fluorescence polarization; actives 0.13% (n = 84,000);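 active means above 50% in either of two replicates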;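 further: 0% = protein plus DNA without compound and 100% = DNA alone without protein; higher means less MgrA bound to DNA so lower polarization; one replicate is shown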
S aureus helic: S. aureus DNA helicase inhibition. purified S. aureus helicase, fluorescence unwinding assay; about half of the hits fall short of the stated cut. inhibition, %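 (tested at about 80 µM)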. actives 0.05% (n = 120,000). AID 485395;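 active means both duplicates at 50% or more, or one of them with a favoured structure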;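 further: 0% = mean of negative control wells and 100% = mean of positive control wells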
An asterisk follows results filed as active; nt = no result given; & = joins results of further samples. A portion of the library, so the mix of outcomes need not match the whole.

SMILES | MgrA-DNA mod | S aureus helic
CC(=O)Nc1ccc(NC(=O)CSCC(=O)O)cc1 | -2.5 | nt
COc1ccc(CN(C)CC(=O)c2c[nH]c3ccccc23)c(OC)c1 | nt | -7.0
Cn1c(Cc2ccccc2C(=O)O)nc(=O)c2ccccc21 | nt | -59.0
O=S(=O)(NCCc1ccccc1)c1cccc2cccnc12 | nt | 23.0
CC(=O)NCCc1nc2cc(NC(C)=O)ccc2n1C | -0.3 | -5.0
Cc1ccc(S(=O)(=O)NC(=O)NCCc2cccs2)cc1 | 0.0 | nt
CC(/C(N)=N/O)N1CCCC1=O (stereo unspecified) | nt | 7.0
Cc1cc(OCc2noc(CSc3ccc(C(F)(F)F)cn3)n2)cc(C)c1Cl | -0.1 | nt
COc1ccc(C(=O)CNc2ccc(C#N)cc2)cc1 | -1.5 | -26.0
O=C(Cn1nnc2ccccc21)NC1Cc2ccccc2C1 | -2.7 | nt

Compounds above that have a carbonyl joined to an NH by a bond outside any ring (4):
SMILES | MgrA-DNA mod | S aureus helic
CC(=O)Nc1ccc(NC(=O)CSCC(=O)O)cc1 | -2.5 | nt
CC(=O)NCCc1nc2cc(NC(C)=O)ccc2n1C | -0.3 | -5.0
Cc1ccc(S(=O)(=O)NC(=O)NCCc2cccs2)cc1 | 0.0 | nt
O=C(Cn1nnc2ccccc21)NC1Cc2ccccc2C1 | -2.7 | nt

(list continues)
SMILES | MgrA-DNA mod | S aureus helic
Cc1csc2nc(CN3CCOCC3)[nH]c(=O)c12 | 1.4 | nt
O=C1/C(=C\c2ccc(-c3cccc(C(F)(F)F)c3)o2)SC(=S)N1C1CCS(=O)(=O)C1 (stereo unspecified) | 0.5 | nt
O=c1c(-c2nnnn2-c2ccccc2)c[nH]c2ccccc12 | -9.3 | nt
Cc1cnc(NC(=O)CCN2C(=O)c3ccccc3C2=O)s1 | 1.1 | -11.0
FC(F)(F)c1ccccc1-c1nnc(-c2sccc2Cl)o1 | -2.8 | nt
N#Cc1ccc(Cl)cc1NC(=O)COC(=O)C1CC1 | 1.9 | -24.0
C=CCN(C(=O)CSc1nc2ccccc2o1)c1nc2c(s1)CCCC2 | nt | -55.0
CC1CCC(C(C)C)C(=O)/C1=C/c1ccc(N(C)C)cc1 (stereo unspecified) | -0.8 | 17.0
Nc1ccc(C(=O)OC(C(=O)N2CCOCC2)c2ccccc2)cc1 (stereo unspecified) | nt | 15.0
O=C(CCc1ccccc1)OCc1nc2ccccc2s1 | 0.4 | -48.0
CCOC(=O)C1=C(C)NC2=C(C(=O)OC2)C1c1ccccc1 (stereo unspecified) | nt | -7.0
CN(C)c1ccc(C=Nc2ccc(C(N)=O)cc2)cc1 | 1.3 | 6.0
COC(=O)CN1C(=O)/C(=C\c2ccc(O)cc2)SC1=S | -1.2 | -98.0
COC(=O)C1=C(C)NC(=S)NC1c1cn(-c2ccccc2)nc1-c1cccs1 (stereo unspecified) | 2.4 | -17.0
Cc1ccc(CNC(=O)Cn2c3ccc(C)cc3c3nc4n(c(=O)c32)CCS4)cc1 | 2.4 | 8.0
N#Cc1ccc(OCC(=O)O)cc1 | 1.9 | -4.0
CCC(C(=O)Nc1ccccc1OC)n1c(C(=O)OC)cc2oc(C)cc21 (stereo unspecified) | nt | 13.0
CCN1C(=O)c2cccc3c(S(=O)(=O)N4CCc5ccccc5C4)ccc1c23 | 1.2 | -4.0
S=C1NC2(CCCCCC2)NN1c1ccccc1 | nt | -23.0
CC(=O)Nc1ccccc1C(=O)NN | nt | 33.0
Cc1ccccc1C(=O)Nc1ccc2nc3n(c(=O)c2c1)CCC3 | nt | 0.0
COc1cc(C)c2c(=O)c(-c3csc(C)n3)coc2c1 | nt | -19.0
COc1ccc(Cl)cc1NC(=O)CN(C)CN1C(=O)C2CC=CCC2C1=O (stereo unspecified) | nt | 13.0
CNC(=O)Nc1ccc(C)c(Cl)c1 | -0.2 | nt
COc1ccc(OC)c(CNC(=O)c2cc3cc4ccc(C)cc4nc3o2)c1 | nt | -32.0
COc1ccccc1N1CCN(C(=O)c2cnn3c(C)c(Cc4cccc(C)c4)c(C)nc23)CC1 | -2.2 | 3.0
O/N=C1/C2CN3CCN(C2)CC1(Cc1ccccc1)C3 | -0.5 | 1.0
O=C(O)c1cccc(-c2cccc(C(=O)O)c2)c1 | nt | 5.0
O=C(NC1CCN(C(=O)c2ccc(Cl)cc2Cl)CC1)C1CCCCC1 | -1.6 | nt
Cc1ccsc1/C=N/NC(=O)c1nnn(-c2nonc2N)c1C | nt | -22.0
O=C(COC(=O)C1=COCCO1)NCc1cccs1 | nt | -1.0
Cc1nc2ccc(S(=O)(=O)N(C)CC(=O)NC3CCCC3)cc2s1 | -0.3 | 7.0
CC(C(=O)NCc1ccco1)N(C(=O)c1ccc(Cl)nc1)C1CCCCC1 (stereo unspecified) | 3.5 | 7.0
Cc1ccc2c(c1)C1CN(C)CCC1N2C(=O)COc1ccccc1 (stereo unspecified) | 3.1 | -40.0
CCc1cc(C(=O)OC)c(NC(=O)CC2SC(=NC)N(C)C2=O)s1 (stereo unspecified) | -0.2 | -12.0
CC(C)NC(=O)CSc1nnc(-c2ccc(C(C)(C)C)cc2)n1-c1ccc2c(c1)OCO2 | -0.5 | nt
CCOC(=O)CNc1c(-c2ccc(OC)cc2)nc2cccc(C)n12 | -1.0 | 23.0
Cc1cccc(N(C)S(=O)(=O)c2ccc3[nH]c4c(c3c2)CCCC4)c1 | 1.5 | 9.0
CCOc1ccc(C(C)N)cc1 (stereo unspecified) | -1.1 | -7.0
Cc1cccc(N2CCN(C(=O)CCc3nnc4n(C)c(=O)c5ccccc5n34)CC2)c1C | nt | -18.0
CCC(C(=O)C(C)C(O)C(C)CCc1ccc(C)c(O)c1C(=O)O)[C@H]1O[C@](CC)([C@H]2CC[C@](O)(CC)[C@H](C)O2)C[C@@H]1C (stereo partly specified) | 1.1 | nt
CCOC(=O)C1=CNc2ccccc2N=C1N | -2.2 | nt
CCN1CCN(CC(=O)N/N=C/c2ccccc2)CC1 | -2.2 | nt
C=CCn1c(SCC(=O)N2CCc3ccccc3C2)nnc1-c1ccccc1OC | 1.1 | 11.0
CCN(C(=O)NS(=O)(=O)c1ccc(C)cc1)C1CCCCC1 | nt | -13.0
Cc1onc(-c2ccccc2)c1C(=O)NC1C(=O)N2[C@@H]1SC(C)(C)[C@@H]2C(=O)O (stereo partly specified) | 1.9 | nt
CC(=O)N(C(C)=O)c1ccc2c3c(cccc13)CC2 | -0.8 | nt
COc1ccc(C(=O)O)cc1S(=O)(=O)NCCc1ccccc1 | 0.6 | 8.0
Nc1ncnc2c1ncn2[C@@H]1O[C@H](CO)[C@@H](O)[C@@H]1O | 0.4 | nt
O=C(O)c1csc(-c2cccnc2)n1 | -0.6 | nt

Following part.
SMILES | MgrA-DNA mod | S aureus helic
CCN(CCO)Cc1cn[nH]c1-c1ccc(C)c(C)c1 | -8.1 | -6.0
CC(C)(C)C(=O)COC(=O)c1ccc(NS(=O)(=O)c2cccs2)cc1O | nt | -8.0
CC(C)(C)c1ccccc1OCC(O)CN1CCN(c2ccccc2F)CC1 (stereo unspecified) | nt | 11.0
CC(=O)Nc1ccc(OCc2cnc(Cl)s2)cc1 | -2.4 | nt
O=c1ccnc(SCCc2ccccc2)[nH]1 | -0.6 | 22.0
CN1/C(=C\C(=O)CSCc2ccco2)C(C)(C)c2ccccc21 | nt | -8.0
COc1ccc(NC(=O)CS(=O)(=O)c2c[nH]c3ccccc23)cc1 | 4.2 | 9.0
CSc1cccc(NC(=O)COC(=O)c2ccccc2)c1 | nt | 3.0
O=C1Nc2ccccc2/C1=N\N=C\c1ccccc1 | nt | 10.0
COC(=O)c1ccccc1NCNc1ccccc1C(=O)OC | 0.9 | 0.0
CCOc1ccc(N2C(=O)NC(=O)/C(=C\c3ccc(OCC(=O)O)c(OC)c3)C2=O)cc1 | 1.5 | nt
CC(=O)N(/C=C1\Sc2ccccc2C1=O)c1cc(C(F)(F)F)ccc1Cl | -1.4 | nt
COC(=O)c1cccc2cccc(I)c12 | 2.2 | nt
CS/C(=N\S(=O)(=O)c1ccccc1)NNc1ccccc1 | nt | -13.0
Cc1cc(C)n(CC(=O)O)n1 | nt | 6.0
O=C1SC(Nc2ccc(Br)cc2)C(=O)N1Cc1ccccc1 (stereo unspecified) | nt | 10.0
CN(Cc1ccccc1)C(=O)c1cnc2sccn2c1=O | 2.0 | 5.0
Cc1cc(N2CCCCC2)nc(N2CCOCC2)n1 | -1.2 | -6.0
CCn1c(C(=O)Nc2ccc(C)c(C)c2)cc2sc(Cl)cc21 | -1.4 | 10.0
N#Cc1ncc(C(F)(F)F)cc1Oc1ccc(O)cc1 | 1.0 | nt
Cc1ccc(Cn2ncc3c(N4CCOCC4)ncnc32)cc1 | nt | -11.0
CC(C)NC(=O)C1c2ccccc2C(=O)N(C)C1c1c[nH]c2ccccc12 (stereo unspecified) | nt | 6.0
CN1CCC(=CC(=O)O)CC1 | -5.9 | 3.0
CCC(C)NC(=O)Cn1nc(C)c(S(=O)(=O)N2CCCCC2)c1C (stereo unspecified) | nt | 12.0
CCN1CCCC(OC(=O)NC2CCCCC2)C1 (stereo unspecified) | nt | 5.0
O=C1C(c2ccc([N+](=O)[O-])cc2)=C(O)c2ccccc21 | 11.5 | nt
Cc1cccc(N2CCN(C(=O)CCCC(=O)O)CC2)c1C | nt | 4.0
CS(=O)(=O)c1ccc([C@@H](O)[C@@H](CO)NC(=O)C(Cl)Cl)cc1 | 2.9&1.0 | nt
Cc1cc(=O)n2c(c1C#N)SCCC2 | nt | 3.0
COc1cccc(Cn2c(-c3cncs3)nc3ccccc32)c1 | -4.2 | -3.0
Clc1ccccc1Oc1cnc2ccccc2n1 | 0.4 | nt
O=C(c1ccc(Cl)cc1)N(Cc1cccnc1)Cc1cccnc1 | -0.4 | nt
CN(C)CCN(C)Cc1cc(C(C)(C)C)c(O)c(C(C)(C)C)c1 | -5.7 | 6.0
Cc1ccc(S(=O)(=O)N2CCCC2)cc1C(=O)O | -3.2 | 9.0
COc1ccc(CCNC(=O)Cn2cnc3onc(-c4ccc(Cl)cc4)c3c2=O)cc1OC | nt | -24.0
O=c1c2ccccc2nc(Sc2c([N+](=O)[O-])cc(C(F)(F)F)cc2[N+](=O)[O-])n1-c1ccc(F)cc1 | 1.8 | nt
COc1cc(C=NCCCCN=Cc2cc(OC)c(OC)c(OC)c2)cc(OC)c1OC | 1.1 | nt
Cc1cccc(C)c1NC(=S)NC12CC3CC(CC(C3)C1)C2 | 2.2 | 20.0
CN(C)CCCNc1nnnn1-c1ccccc1 | nt | 4.0
CC(C)N1CCc2c(sc(NC(=O)C(C)(C)C)c2C#N)C1 | nt | -24.0
COC(CNC(=O)c1cc2c(s1)CS(=O)(=O)C2)OC | nt | 1.0
CCCS(=O)(=O)N1CCN(c2ccc(NCC3CCCO3)nn2)CC1 (stereo unspecified) | nt | 11.0
CCOC(=O)Cc1nc(O)cs1 | nt | -1.0
O=C(O)/C=C/c1ccc(N2CCCCCC2)cc1 | nt | -1.0
N#CC1=C(N)C(C#N)=c2s/c(=C/c3cccc(F)c3)c(=O)n2C1c1cccc(F)c1 (stereo unspecified) | 1.3 | 1.0
C=CCN1C(=O)/C(=C\C=C2/CCCN2C)SC1=S | nt | -99.0
Cc1ccc(C2=N/C(=C\c3c(C)nn(-c4ccccc4)c3N3CCCC3)C(=O)O2)s1 | nt | -38.0
COc1cccc(NCc2nnc(SCC(=O)N3CCNC3=O)n2C2CCCCC2)c1 | nt | 10.0
CCN(CC)CC(O)COc1ccc(C(C)(C)CC)cc1C(C)(C)CC (stereo unspecified) | -3.9 | -3.0
Oc1ccc(O)c(CN2CCCCCC2)c1 | nt | -8.0

Carrying on:
SMILES | MgrA-DNA mod | S aureus helic
c1ccc(CNCc2cn(Cc3ccccc3)c3ccccc23)cc1 | nt | 10.0
O=C(CN1C(=O)C2C3C=CC(C3)C2C1=O)Nc1nc(SCc2ccc(Cl)cc2)n[nH]1 (stereo unspecified) | nt | -5.0
CCCS(=O)(=O)Cc1nnc(-c2ccc(C(C)(C)C)cc2)o1 | 2.2 | nt
N=C1/C(=C2\Nc3ccccc3S2)CC(=O)N1C1CC1 | nt | -2.0
COc1ccc(-c2ccnc(SCC(=O)N3CCOCC3)n2)cc1 | 0.7 | nt
Cc1nc(CCNC(=O)c2ccccc2)cs1 | -0.6 | 12.0
O=C(Cn1cc2c(n1)CCCC2)Nc1ccc2c(c1)OCCO2 | nt | -13.0
COc1ccc(NCC(=O)N/N=C2\CCc3ccccc32)cc1 | nt | -3.0
CCOC(=O)c1c(N=CN(C)C)c(C#N)c2n1CCC2 | -0.1 | 9.0
COc1ccccc1Oc1coc2cc(OCC(N)=O)ccc2c1=O | nt | 0.0

Quoted from the results shown (3 entries):
SMILES | MgrA-DNA mod | S aureus helic
COC(=O)c1ccccc1NCNc1ccccc1C(=O)OC | 0.9 | 0.0
CCOc1ccc(N2C(=O)NC(=O)/C(=C\c3ccc(OCC(=O)O)c(OC)c3)C2=O)cc1 | 1.5 | nt
CC(=O)N(/C=C1\Sc2ccccc2C1=O)c1cc(C(F)(F)F)ccc1Cl | -1.4 | nt

Going on with the list.
SMILES | MgrA-DNA mod | S aureus helic
COc1ccc(OCCn2c(-c3ccc(Cl)cc3)nc3ccccc3c2=O)cc1 | 1.9 | 5.0
Cc1ccc(CN2CC34C=CC(O3)C(C(=O)NCCc3ccc(Cl)cc3)C4C2=O)cc1 (stereo unspecified) | 3.6 | 1.0
Cc1cc(C)nc(N2CCN(c3ncnc4c3cnn4-c3ccccc3)CC2)n1 | -1.1 | nt
Clc1ccccc1CSc1nc(NCC2CCCO2)c2ccccc2n1 (stereo unspecified) | -0.5 | 9.0
Cc1cc(C(F)(F)F)nn1CC(=O)NCc1cccs1 | -1.2 | -14.0
C[C@H]1[C@H](NC(=O)/C(=N\OC(C)(C)C(=O)O)c2csc(N)n2)C(=O)N1S(=O)(=O)O | 3.0 | nt
CC(C)S(=O)(=O)c1nc2ccccc2n1CC(=O)N1CCCc2ccccc21 | nt | 10.0
CC1=CC(C)(C)N(C(=O)c2ccc(F)cc2)c2cc3c(cc21)OCO3 | -1.4 | 5.0
